Screening results: PubChem, National Center for Advancing Translational Sciences (NCATS)
HPGD inh: blocks human HPGD enzyme activity | purified HPGD, NADH fluorescence kinetic, PGE2 substrate | P15428 | hit rate 4.3% among 150,000 | Potency, µM, without a hit: at the top dose activity change, negative = inhibition, usual class: inhibitors; active = well fitted inhibition curve with a large enough effect (not every such curve was filed as active); inconclusive = small, poorly fitted or top-dose-only effect, or another doubt; inactive = no such curve, though single readings can be large or run the other way;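 note: top concentration of the series not given in the record; plate controls included wells without enzyme; inactives centre near -10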
Target sequence (P15428 whole entry, looked up): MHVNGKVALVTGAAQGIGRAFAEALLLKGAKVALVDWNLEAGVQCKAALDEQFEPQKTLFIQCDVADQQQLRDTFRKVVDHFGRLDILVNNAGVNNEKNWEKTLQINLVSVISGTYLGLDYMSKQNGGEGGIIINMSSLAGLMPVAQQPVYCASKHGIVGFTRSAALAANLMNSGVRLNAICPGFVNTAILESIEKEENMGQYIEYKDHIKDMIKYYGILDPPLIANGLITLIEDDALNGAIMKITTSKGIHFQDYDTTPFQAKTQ
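20 nM HPGD preincubated 15 min at room temperature with compound in 50 mM Tris-HCl pH 8, 0.01% Tween 20. Started with 1 mM NAD+ and 30 uM prostaglandin E2; NADH fluorescence (360/450 nm) read 5 times over 30-s intervals, last minus first.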
Starred values were filed as active, the others as inactive; ? = inconclusive; & = joins results of further samples. % is set by controls: 0 for no effect and ±100 for the full control effect; potency is the fitted concentration of half-maximal effect.

entry	molecule	HPGD inh
1	c1ccc(COc2ccc(OCCCNC3CCCC3)cc2)cc1	-1%
2	COc1ccc(-n2nc(C(=O)Nc3nc4ccc(OC)cc4s3)c3ccccc3c2=O)cc1	-16%
3	O=C(NCc1cccnc1)C1c2ccccc2C(=O)N1C1CCCCCCC1 (configuration not stated)	-10%
4	Cc1cc(C(=O)O)c(CSc2ncn[nH]2)o1	1%
5	Cc1cc(C)nc(SCNC(=O)c2ccccc2)n1	14µM*
6	COc1ccc(C(=O)N(Cc2ccco2)C(C(=O)NC2CCCC2)c2ccc(O)cc2)cc1OC (configuration not stated)	-7%
7	O=C(Nc1ccc(NC(=O)C23CC4CC(CC(C4)C2)C3)cn1)c1ccco1	-12%
8	COc1ccc(CN(CCCN2CCOCC2)C(=O)Nc2cccc(Cl)c2)cc1OC	-10%
9	C[C@H]1Cc2c(COc3ccccc3)nc3c(c2CO1)CN(C(=O)c1cccnc1)CC3	-3%
10	O=CN1Cc2[nH]c3ccccc3c2N(c2ccc(Cl)cc2)C1=O	-3%
11	N#CCCCSc1nnc(Cc2ccc3c(c2)OCO3)o1	-10%
12	Cc1cc(NC(=O)CSc2nnc3c4c(C)c(C)sc4ncn23)no1	-23%
13	Cc1nn(Cc2ccc(Cl)cc2)c(C)c1NC(=O)C1CC=CCC1C(=O)O (configuration not stated)	-8%
14	Cc1cccc(Nc2nnc(SCC(=O)N(C)C3CCS(=O)(=O)C3)s2)c1C (configuration not stated)	-1%
15	CC(=O)NCCn1c(SCc2ccc(C)cc2C)nc2ccccc2c1=O	-10%
16	O=C(Cn1nnc(-c2ccccc2)n1)N1CCN(S(=O)(=O)c2ccc(Cl)cc2)CC1	-13%
17	Cc1ccc(S(=O)(=O)N(CC(=O)N2CCC(C(N)=O)CC2)c2cccc(C(F)(F)F)c2)cc1	-12%
18	CC(C)CC(OC(=O)c1nsc(Cl)c1Cl)C(=O)NCc1cccs1 (configuration not stated)	5µM*
19	CC1=CSC2=NC(=O)/C(=C\c3cccn3-c3ccc([N+](=O)[O-])cc3)C(=N)N12	-22%
20	Cc1cc(C)c(NC(=O)/C(=C/c2ccccc2)c2ccccc2)c(C)c1	-8%
21	COc1ccc(C2NC(=O)NC(C)=C2C(=O)Nc2cc(C)ccc2C)cc1OC (configuration not stated)	-2%
22	COc1ccc(OC(C)C(=O)N2CCC(C)CC2)cc1 (configuration not stated)	?
23	COCCCNC(=O)c1c(N)n(-c2ccc3c(c2)OCO3)c2nc3ccccc3nc12	-29%
24	O=C(c1cn[nH]c1)c1cc(F)ccc1O	-20%
25	Cn1c(SCC(=O)Nc2cc([N+](=O)[O-])ccc2F)nnc1C(F)(F)F	-2%
26	O=C(O)c1ccc(C(=O)O)c(C(=O)c2ccccc2)c1	-14%
27	CCCCNC(=O)c1cnc2n(c1=O)CCS2	-17%
28	Cc1cc(C=O)c2c(c1)C=CC1(Oc3ccccc3C(=O)N1C)O2 (configuration not stated)	-9%
29	Cc1cc(C)cc(Nc2ncc3c(n2)CC(c2ccco2)CC3=O)c1 (configuration not stated)	-3%
30	Cc1nnc(SCC(=O)Nc2ccccc2NC(=O)CSc2nnc(C)s2)s1	0%
31	COc1ccc(C)cc1NC(=O)C(Sc1nnc(-c2ccncc2)n1-c1ccc(Cl)cc1)c1ccccc1 (configuration not stated)	-14%
32	C=CCNC(=O)C1CC(=O)N(c2ccc(OCC(=O)Nc3cccc(OC)c3)cc2)C1 (configuration not stated)	-14%
33	CCOC(=O)c1sc(=S)n(-c2cc(OC)ccc2OC)c1N	3.5µM*
34	CCc1ccc(NCCC(=O)c2ccc(Cl)cc2)cc1	-7%
35	CCOC(=O)c1ccc(N2C(=O)CC(N3CCC(C(N)=O)(N4CCCCC4)CC3)C2=O)cc1 (configuration not stated)	-13%
36	COc1ccccc1Nc1nc(-c2cccs2)cs1	-29%
37	COCCn1c(SCC(=O)c2cccc(OC)c2)nnc1-c1ccco1	-9%
38	O=C(COC(=O)c1cccnc1Nc1ccccc1F)NCCN1C(=O)CSC1=O	-11%
39	CCS(=O)(=O)Nc1ccc(C(=O)c2ccccc2)cc1	0.28µM*
40	CCN1C(=O)/C(=C2/Sc3ccc(OC)cc3N2C)SC1=Nc1cccc(O)c1	-22%
41	CCN(CCCNC(=O)CNC(=O)Cn1cnc2ccccc2c1=O)c1ccccc1	-6%
42	CCc1c(C)sc(NC(=O)C2CCCCC2C(=O)O)c1C(N)=O (configuration not stated)	4µM*
43	c1ccc2c(c1)OCC(c1nn3cnnc3s1)O2 (configuration not stated)	-10%
44	O=S(=O)(NCCNS(=O)(=O)c1ccc(F)cc1)c1ccc(F)cc1	2%
45	O=C(Nc1ccc(S(=O)(=O)N2CCOCC2)cc1)c1ccc(Cl)s1	-8%
46	Cc1ccc(C(=O)N/N=C\c2ccc[nH]2)cn1	-7%
47	O=c1c(-c2cccs2)nc2cnc(Oc3ccccc3)nc2n1C1CC1	?
48	COc1nc(N(C)C)nc(N2CC(=O)N(CCNS(=O)(=O)c3ccc(C)cc3)C2=N)n1	-10%
49	CNCCCNCc1ccc(SC)cc1	-8%
50	CCC(=O)Nc1nc2ccc3nc(C)sc3c2s1	-5%

The list goes on:
entry	molecule	HPGD inh
51	CC(C)C1S/C(=N/N=C/c2ccco2)NC1=O (configuration not stated)	13µM*
52	c1ccc(C(c2nnnn2Cc2cccs2)N2CCN(C3CCCC3)CC2)cc1 (configuration not stated)	0%
53	O=C(Cc1ccccc1)N/N=C/c1ccc(OC(=O)/C=C\c2ccco2)cc1	-12%
54	O=C(CN1CCCCC1)N1c2ccccc2Oc2ccccc21	-2%
55	COC(=O)c1cc(OC)c(OC)cc1NC(=O)C1CCCO1 (configuration not stated)	?
56	O=C(Nc1cccc(F)c1)C1CCN(C(=O)c2ccc(Br)cc2)CC1	-4%
57	COc1ccc(/C(C)=N\Nc2nc(-c3ccc(Cl)cc3)cc(C(F)(F)F)n2)cc1OC	-9%
58	CCOC(=O)C1=C(C)NC(C)=C(C(=O)OC)C1c1cccc([N+](=O)[O-])c1 (configuration not stated)	-10%&-15%&-5%
59	COc1ccc2nc(NCCCO)[nH]c2c1	-2%
60	COc1ccc2c(c1OC)CN(C)CCc1cc3c(cc1C(O)C2)OCO3 (configuration not stated)	-3%
61	COc1ccccc1C1C2=C(COC2=O)Nc2cc3c(cc21)OCO3 (configuration not stated)	?
62	COc1ccc(/C=N/OCC(=O)Nc2nc3ccccc3s2)cc1OC	?
63	COc1ccc(C(=O)O)c(O)c1OC	-7%
64	COc1cc(S(=O)(=O)N2CCOCC2)ccc1NC(=O)COC(=O)CC12CC3CC(CC(C3)C1)C2	-10%
65	CC(=O)N1CCC(N(CCN2CCOCC2)C(=S)Nc2c(C)cccc2C)CC1	-12%
66	O=C(Nc1ccc2c(c1)CCC2)C1CCCO1 (configuration not stated)	18µM*
67	Cn1nc(-c2ccccc2)c(CSc2cccc(Cl)c2)c1Cl	-15%
68	Cc1ccc(S(=O)(=O)N(C)c2nonc2C)cc1	-16%
69	Cc1ccc(S(=O)(=O)N2C(=O)CCC2C(=O)N2CCN(C)CC2)cc1 (configuration not stated)	-5%
70	NC1=NN(c2cccc(C(=O)O)c2)C(=O)C1	-5%
71	CCOC(=O)c1cc(-c2ccc(C#N)cc2)nc2c1c(C)nn2CCC#N	?
72	COc1ccc(CCCC(=O)Nc2ccc(F)cc2)cc1	-18%
73	COCC(=O)NC1CCN(C(=O)NCc2ccccc2)CC1	-15%
74	CCCc1ncc(C(O)c2ccc(OC)cc2)n1C (configuration not stated)	-9%
75	CCC(=O)c1c[nH]c(C(=O)NCc2ccco2)c1	-5%

Some of these compounds in order of count of non-hydrogen atoms, smallest number first:
entry	molecule	HPGD inh
67	Cn1nc(-c2ccccc2)c(CSc2cccc(Cl)c2)c1Cl	-15%
28	Cc1cc(C=O)c2c(c1)C=CC1(Oc3ccccc3C(=O)N1C)O2 (configuration not stated)	-9%
20	Cc1cc(C)c(NC(=O)/C(=C/c2ccccc2)c2ccccc2)c(C)c1	-8%
65	CC(=O)N1CCC(N(CCN2CCOCC2)C(=S)Nc2c(C)cccc2C)CC1	-12%
41	CCN(CCCNC(=O)CNC(=O)Cn1cnc2ccccc2c1=O)c1ccccc1	-6%

Additional structures
entry	molecule	HPGD inh
76	Cc1c(C(=O)N2CCCC2)oc2c1-c1[nH]ncc1CC2	-8%
77	C/C(=N/NS(=O)(=O)c1ccc(C)cc1)P(=O)(O)O	-14%
78	O=C(NCCc1ccccc1)C1CCN(S(=O)(=O)c2cccnc2)CC1	-13%
79	Cc1cccc(OCCOC(=O)Nc2ccccc2)c1	-8%
80	O=C(NCc1ccccc1)c1ccc(CN(c2ccccn2)S(=O)(=O)c2ccccc2)cc1	?
81	O=C(O)C(Cc1cccs1)C(=O)O	-6%
82	O=C(c1cccs1)C1C(c2ccc(Br)cc2)NC(=S)NC1(O)C(F)(F)F (configuration not stated)	-17%
83	CC(C)COc1ccc(CSCCNC(=S)Nc2ccccc2)cc1	-13%
84	O=[N+]([O-])c1c(NCc2ccccc2)cc(N2CCc3ccccc3C2)c2nonc12	-24%
85	CC(C)(C#CCN1CCCC1)OCCC#N	-5%
86	CCOC(=O)c1sc2nc(C)c3c(c2c1N)CC(C)(C)OC3	?
87	CCN(CC)S(=O)(=O)c1ccc(NC(=O)Nc2cccc(C(F)(F)F)c2)cc1	-1%
88	COC(=O)[C@@]1(Cc2ccc(OC)cc2)[C@H]2c3cc(C(=O)N4CCCC4)n(CCc4c[nH]c5ccc(O)cc45)c3C[C@H]2CN1C(=O)c1ccccc1	-12%&-1%
89	COc1ccc(CNC(=O)c2cc(-c3cccs3)on2)cc1	-12%
90	O=[N+]([O-])c1ccc(CCNc2cccc3ccccc23)c([N+](=O)[O-])c1	-20%
91	CC(=O)c1ccc(N2CCN(C(=O)c3cc(C)on3)CC2)cc1	-18%
92	Cc1ccc(NS(=O)(=O)c2cccc(C(=O)O)c2)c(C)c1	2%
93	CC(C)(C)NC[C@H](O)COc1cccc2c1CCCC2=O	-6%&-14%
94	CCn1cc(C(=O)OCC(=O)OC2CC(C)CCC2C(C)C)c(=O)c2ccc(C)nc21 (configuration not stated)	-23%
95	O=C(CCN1CCN(c2ccc(Cl)cc2)CC1)Nc1ccccc1F	?
96	CS(=O)(=O)N1CCC(C(=O)Nc2ccc(Cl)c(C(F)(F)F)c2)CC1	-1%
97	COc1ccc2[nH]c(-c3cccc(F)c3)cc(=O)c2c1	?
98	Cc1cccc(C)c1NC(=O)c1sc(Cl)nc1C	1%
99	Cc1noc(NC(=O)c2ccccc2Cl)c1C#N	3%
100	O=C(NCc1ccncc1)c1ccc(Cn2cc(C(F)(F)F)ccc2=O)cc1	-8%
101	O=C(CCNS(=O)(=O)c1cccs1)NCc1ccco1	5%
102	c1ccc(-c2noc(-c3ccc4ccccc4c3)n2)cc1	-18%
103	CCC/C=N/NC(=O)c1cc(Br)ccc1O	?
104	Cc1cc2ccccc2c(=O)n1CC(=O)NCC(=O)N1CCN(c2ccccc2F)CC1	?
105	Cc1cc(NC(=O)Cn2nc(C(F)(F)F)c3c2CCCC3)no1	-1%
106	O=C(CSc1ccc(-c2ccc(F)cc2)nn1)N1CCCCC1	16µM*
107	COc1ccccc1NC(=O)C(O)C(O)C(=O)Nc1ccccc1OC (configuration not stated)	-6%
108	Cc1cccc(-n2nnc(C(=O)NCc3ccc4c(c3)OCO4)c2N)c1	?
109	Cc1ccccc1C(=O)NC(CC(C)C)C(=O)Nc1ccc(F)c([N+](=O)[O-])c1 (configuration not stated)	0%
110	COC(=O)c1ccccc1NC(=O)CSc1nnc(-c2ccc(C)cc2)o1	-11%
111	CCOC(=O)Cc1cn2c(=O)cc(CSCC(=O)Nc3ccc(C)c(C)c3)nc2s1	-11%
112	COC(=O)[C@@]1(Cc2ccc(OC)cc2)[C@H]2c3cc(C(=O)N4CCCC4)n(Cc4ccc(OC)c(OC)c4)c3C[C@H]2CN1C(=O)c1ccccc1	-12%&-3%
113	O=C(CSc1nnc(CNc2ccc(F)cc2)o1)OC1CCCCC1	-7%
114	Cc1cc(N2CCN(c3ccccc3)CC2)n2c(n1)nc1ccccc12	?
115	COc1ccc(N2C(=O)CCC(C(=O)NCc3ccccn3)C2c2ccc(F)cc2)cc1 (configuration not stated)	1%
116	COC(=O)c1ccc(NC(=O)c2cccc(Cl)c2)o1	-11%
117	CCNC(=S)NNC(=O)CCn1c2ccccc2c2ccccc21	-4%
118	O=C(NCc1nnc(SCC(=O)N2CCCC2)o1)c1c(F)cccc1Cl	-4%
119	Cc1nonc1NC(=O)CSc1nnc(-c2ccoc2C)n1CC(C)C	2%
120	COc1cccc(-c2nn(C)c3sc(C(=O)NCc4ccc(C)o4)cc23)c1	?
121	Cc1ccc(NC(=O)O/N=C2\CCCCC2c2ccc([N+](=O)[O-])cc2[N+](=O)[O-])cc1 (configuration not stated)	-20%
122	O=C1CN=C(Nc2cccc(C(F)(F)F)c2)N1C1CCCC1	-6%
123	CCCn1c(SCN2C(=O)c3ccccc3C2=O)nc2cc(Cl)ccc2c1=O	-11%
124	CCNC(=S)NCc1ccc2[nH]c(C)cc2c1	1%
125	N#Cc1cc2c(nc1SCC(=O)Nc1sc3c(c1C#N)CCC3)CCCC2	-24%

Remaining list, next part.
entry	molecule	HPGD inh
126	Cc1cccc(NC(=O)CCSc2nc(C)cc(C)n2)c1	-10%
127	CCOc1cccc2sc(Nc3nc4ccc(NC(C)=O)cc4s3)nc12	?
128	CCCCn1c(SCC(=O)Nc2cc(C(F)(F)F)cc(C(F)(F)F)c2)nnc1C(CC)N(C)C (configuration not stated)	-16%
129	O=C(O)c1ccc2[nH]c3c(c2c1)CSCC3	-19%

Two entries drawn at random from those above, as already listed:
entry	molecule	HPGD inh
120	COc1cccc(-c2nn(C)c3sc(C(=O)NCc4ccc(C)o4)cc23)c1	?
101	O=C(CCNS(=O)(=O)c1cccs1)NCc1ccco1	5%

A portion of the library; the hit share may differ from the screen's.
